Rango dissoc inh – inhibition of RanGTP-driven Rango-importin beta dissociation; 340,000 compounds, 0.071% hits; Potency, µM (doses to about 46.1 µM), without a hit: at the top dose activity change, negative = inhibition; Biochemical FRET Rango-importin beta, RanGTP-induced dissociation; O95149+P62826; active means falling FRET ratio curve, often poorly fitted, with flat reads before Ran was added; inconclusive means other falling curves, or compound fluorescence or quenching; inactive means flat or rising ratio curve;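 further: potency means the concentration at half of the fitted maximal effect; % of control where 0% means no effect; nearly all actives have a fitted effect of over 45% in size; -100% = wells without RanGTP and RCC1; the record marks most hits as doubtful in a second field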
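Compounds sat 5 min at room temperature with 0.1 uM Rango biosensor plus 0.25 uM importin beta, then FRET pre-read. RanGTP-RCC1 (0.6 uM Ran, 2mM GTP, 0.2 uM RCC1) added for 45 min, and the CFP/YFP post-read measured blocked complex dissociation.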
Rango complex inh – prevents formation of the Rango-importin beta complex | Rango CFP/YFP FRET sensor + importin beta, 45 min | Potency, µM (highest dose often 92.2 µM), for inactives: at the top dose inhibition of complex formation | 340,000 compounds, 0.031% hits; active = rising FRET ratio curve, often small or poorly fitted; inconclusive = mostly compound fluorescence or quenching in the first reads; inactive = flat curves in all reads;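 further: potency means the concentration at half of the fitted maximal effect; 0% = DMSO wells and 100% = buffer wells lacking importin beta; nearly all actives have a fitted effect of over 15% in size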
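FRET biosensor Rango (snurportin 1 IBB between N-terminal EYFP and C-terminal Cerulean), 50 nM in PBS/1 mM DTT/0.02% Tween-20/0.1% BSA, preincubated 5 min RT with compound; 0.125 microM importin beta added, 45 min RT, CFP/YFP FRET ratio read.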
GLA inh pH 4.5 – blocks human alpha-galactosidase A at pH 4.5; P06280; purified enzyme, 4-MU-alpha-Gal fluorescence, pH 4.5; activity change, negative = inhibition, % at 105 µM; 230,000 tested, under 10 active; AID 1467; inconclusive = small, poorly fitted or top-dose-only inhibition, or a rising curve; inactive = flat fitted curve, though single readings scatter; no compound was filed as active;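 further: 0% = full activity with enzyme and -100% = basal without enzyme; dose as in the result columns while the protocol names 77 µM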
Target sequence (P06280 whole entry, looked up): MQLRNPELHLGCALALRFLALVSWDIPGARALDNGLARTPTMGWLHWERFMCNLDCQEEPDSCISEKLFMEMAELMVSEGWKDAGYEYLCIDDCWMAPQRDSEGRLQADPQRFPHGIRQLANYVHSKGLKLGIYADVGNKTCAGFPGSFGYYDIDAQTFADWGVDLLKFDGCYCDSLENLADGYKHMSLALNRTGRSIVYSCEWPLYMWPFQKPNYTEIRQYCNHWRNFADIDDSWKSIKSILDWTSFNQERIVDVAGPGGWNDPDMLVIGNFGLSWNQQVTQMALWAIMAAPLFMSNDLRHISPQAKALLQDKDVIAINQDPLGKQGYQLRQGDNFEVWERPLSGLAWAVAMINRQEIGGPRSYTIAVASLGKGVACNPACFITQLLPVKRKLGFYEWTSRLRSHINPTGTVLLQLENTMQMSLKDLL
miR-21 reporter – raises the signal of a miR-21 reporter. HeLa miR-21 FLuc reporter, luciferase, 48 h. Potency, µM (doses to about 38.3 µM), for inactives: at the highest dose reporter change, positive = more light. 340,000 tested, under 10 active. AID 2288; active = well fitted rising curve with a large enough effect; inconclusive = small, poorly fitted or top-dose-only effect; inactive = no such curve, though single readings can be large or run the other way;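 further: % of control where 0% means no effect; miR-21 action dims this reporter so a rising signal means less miR-21 action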
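Luminescence from a firefly luciferase reporter carrying a miR-21 binding site downstream, stably expressed under a CMV promoter in HeLa cells that make miR-21 endogenously, reports miRNA modulation after 48 h compound exposure up to approximately 40uM final.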
The depositor's hits bear a star; ? = inconclusive; · = no result given; & = joins results of further samples; [ ] = remark or other dose.

Molecule | Rango complex inh | miR-21 reporter | Rango dissoc inh | GLA inh pH 4.5
CCc1ccc(CNC(=O)C2CCC(=O)N2C2CCCCC2)cc1 (stereo not drawn) | -2.9% | 0% | -5% | -1
COCC(C)NC(=O)C(C)N1c2cccc3cccc(c23)S1(=O)=O (stereo not drawn) | 3.4% | 0% | -2% | ·
CN1CCCN(S(=O)(=O)c2ccc3c(c2)OCCO3)CC1 | -3.8% | -2% | -12% | 5
COc1ccccc1Oc1coc2cc(OC(=O)N3CCOCC3)ccc2c1=O | -3.3% | -4% | 4% | 0
C=CCOC(=O)C1=C[C@@H](c2csc3ccccc23)C[C@@H](OCc2ccc(CO)cc2)O1 | -0.8% | 17% | -10% | -9
COc1ccc(/C=N/NC(=O)Cc2csc(Nc3cccc(C(F)(F)F)c3)n2)cc1C | 2.2% | -1% | 2% | 4
O=C(NC1(C(F)(F)F)N=C2SCCN2C1=O)c1ccccc1 (stereo not drawn) | 6.3% | -1% | -6% | 7
CC(=O)Nc1ccc(S[C@@H](CCN2CC[C@H](O)CCC2=O)c2ccccc2)cc1 | 0.3% | · | -12% | ·
Cc1cccc(C)c1OCC(O)CN(Cc1ccccc1O)C1CCCCC1 (stereo not drawn) | -2.4% | 18% | 0% | -12
Cc1cc(C)nc(NS(=O)(=O)c2ccc(N/C=C\C(=O)c3cccs3)cc2)n1 | ? | -52% | ? | -5
O=C1CS/C(=N/N=C/c2cccs2)N1Cc1ccc(F)cc1 | -3.0% | 5% | -5% | 3
COc1cc(OC)cc(-c2c(C#Cc3ccsc3)c3cc(-c4ccc5cc[nH]c5c4)ccc3n2C)c1 | -1.1% | · | -17% | ·
CCCn1c(SCC(=O)NC2CCCCC2)nnc1-c1ccccn1 | -3.7% | -1% | -7% | -2
O=c1ccc2ccccc2n1Cc1cccc(F)c1 | -0.8% | -26% | -2% | ·
COC(=O)CCSCC(=O)Nc1nnc(C)s1 | ? | -1% | -7% | 4
CC1CCCCN1S(=O)(=O)c1ccc(C(=O)Nc2nnc(-c3ccco3)o2)cc1 (stereo not drawn) | -0.4% | 26% | 2% | ·
CC(CCc1ccccc1)NC(=O)C(=O)NCc1ccccc1 (stereo not drawn) | 0.8% | -6% | -10% | 7
COc1ccc(OC)c(S(=O)(=O)N(C)CC(=O)N2CCN(c3cccc(Cl)c3)CC2)c1 | 0.2% | 13% | 1% | -16
O=C(Nc1ccc(N2CCN(C(=O)c3ccc(Cl)cc3)CC2)cc1)c1cccnc1 | -0.2% | 6% | 18% | 6
C=CCOC(=O)C1=C[C@H](c2coc3ccccc3c2=O)C[C@H](OCc2ccc(CO)cc2)O1 | -0.5% | 0% | 2% | -9
Cc1nc(Cl)sc1C(=O)Nc1cccc(Cl)c1C | 0.1% | -6% | -1% | -8
CC(=O)O[C@H]1C[C@@]2(O)[C@@H](OC(=O)c3ccccc3)C3[C@@](C)([C@@H](O)C[C@H]4OC[C@@]34OC(C)=O)[C@@H](O)[C@H](OC(C)=O)C(=C1C)C2(C)C (stereo partly drawn) | -0.7% | 18% | -4% | ·
O=C(NNC(=O)c1cnccc1C(F)(F)F)c1cccc(Cl)c1 | 0.6% | -2% | -12% | ?
CCC(CO)Oc1cc(NC(=O)c2ccc(F)cc2)c2ncn(C(C)C)c2c1 (stereo not drawn) | -4.7% | · | 15% | ·
Cc1occc1C(=O)N1CCC2(CCCN(Cc3ccc(F)c(F)c3)C2)C1 (stereo not drawn) | -0.7% | 8% | 20% | ·
CCOCCCNC(=O)C1CCCN1S(=O)(=O)c1ccc(Cl)cc1 (stereo not drawn) | 0.3% | 0% | 16% | 0
CC(=O)c1ccc2c(c1)OCCOCCOc1ccc(C(C)=O)cc1OCCOCCO2 | 2.6% | 1% | -3% | -8
CN(c1ccccc1)c1ccc(/C=C(\CCC(=O)O)c2nc3ccccc3s2)cc1[N+](=O)[O-] | 0.9% | -7% | ? | -9
COc1ccc(C(=O)Nc2ccc(NC(=O)c3cccc(F)c3)cn2)cc1 | 3.4% | 7% | 1% | ·
CSc1ccc(S(=O)(=O)NCc2ccc(Cl)cc2)cc1 | -0.6% | -9% | -4% | -6
COc1ccc(C(=O)[C@H]2[C@H]3C(=O)N(c4ccc(C)cc4)C(=O)[C@H]3C3C=CC=NN32)cc1 (stereo partly drawn) | -0.3% | -35% | -6% | 0
Cc1ccc(OC(C)C(=O)N(Cc2cccs2)C2CCS(=O)(=O)C2)cc1C (stereo not drawn) | 5.5% | 1% | 21% | -5
CCCn1c(=NC(=O)c2ccc3c(c2)OCO3)c(C#N)cc2c(=O)n3cccc(C)c3nc21 | · | -4% | · | 1
NNc1nc2ccccc2nc1C(F)(F)F | -4.2% | 0% | ? | -3
O=C1NCC(=O)N(Cc2ccccc2)/C1=C/c1ccccc1 | 1.1% | 3% | 11% | 1
O=C(CSc1nc2ccccc2o1)N1c2ccccc2Sc2ccc(C(F)(F)F)cc21 | 0.9% | -7% | 4% | -7
CN1CCN(c2ncnc3sc(-c4ccccc4)cc23)CC1 | -2.5% | -34% | 6% | -6
O=C(Cc1ccc(Cl)c(Cl)c1)OCC(=O)c1ccc[nH]1 | -5.2% | -14% | -15% | -5
NC(=O)c1ccc(NC(=O)CCCN2C(=O)c3ccccc3C2=O)cc1 | 1.7% | -5% | 24% | 9
CN(C)C(=O)C1CCC(=O)N1Cc1cccs1 (stereo not drawn) | -2.6% | 1% | 2% | 6
Cc1ccc(CCNC(=O)CN(C)S(=O)(=O)c2ccc3c(c2)n(C)c(=O)c(=O)n3C)cc1 | -3.5% | 0% | 6% | -3
COc1cc(CNCc2ccccn2)ccc1OCC(=O)NC1CCCCC1 | ? | -3% | -15% | -7
CC#CC[N+](C)(CC#CC)CC(=O)c1ccccc1 | 1.3% | 0% | 6% | -5
CCCCn1c(SCc2ccc(Cl)cc2)nc2c1c(=O)[nH]c(=O)n2C | 0.0% | -24% | 2% | 14
Cc1nn(CC(=O)NCCCc2ccccc2)c(C)c1[N+](=O)[O-] | ? | -2% | 9% | 0
COc1ccc(N2CCN(C(c3cc(OC)ccc3OC)c3nnnn3CC3CCCO3)CC2)cc1 (stereo not drawn) | ? | -8% | 21% | -4
Cn1cnc2c(=O)sc3ccccc3c21 | -0.4% | · | -22% | ·
Cc1ccc(C(=O)NNCC(=O)Nc2ccc(Cl)cc2F)cc1 | -2.8% | · | 16% | ·
CCc1cc(-c2n[nH]c(=S)n2CC(C)C)cs1 | 1.2% | -7% | -13% | 10
Cc1c(-n2c(SCC(=O)O)nnc2-c2ccccc2Br)c(=O)n(-c2ccccc2)n1C | 4.8% | 0% | 4% | -4
CCOC(=O)c1c(C)[nH]c(C(=O)Nc2cc(OCC)c(N3CCOCC3)cc2OCC)c1C | -0.2% | · | -17% | ·
CCOc1ccc(C(C)(C)C)cc1S(=O)(=O)Nc1ccncc1 | -0.7% | -4% | 15% | ·
N#C/C(=C/c1ccccc1OCc1ccc(F)cc1)c1ccc(C(=O)O)cc1 | -3.0% | -8% | 1% | ·
O=C(COc1ccc(Br)cc1Cl)NNC(=O)c1ccccc1 | 0.4% | · | 1% | ·
Cc1cc(C)cc(CN2CCC(Oc3ccc(C(=O)N4CCCC4)cc3)CC2)c1 | 0.5% | -2% | -1% | ·
C#CCN1C(C)=CC(=O)[C@@H](O)[C@H]1c1ccccc1Br | -0.3% | · | -6% | ·
Cc1cccc(/C=N/NC(=O)c2ccc(NC(=O)c3ccc(Cl)cc3)cc2)n1 | -2.8% | -8% | -5% | ·
CCOc1cc(C)c(C(C)C)cc1S(=O)(=O)N1CC(C)OC(C)C1 (stereo not drawn) | 2.3% | -1% | 0% | -1
CCc1ccc(OC2=NS(=O)(=O)c3ccccc32)cc1 | -1.7% | -1% | -3% | 7
Cc1ccc(NCC(=O)N/N=C/c2cccc(Br)c2)cc1 | -4.5% | -6% | -15% | -4[21.1 µM]

Following part.
Molecule | Rango complex inh | miR-21 reporter | Rango dissoc inh | GLA inh pH 4.5
Cc1cc(N(C)C)nc(SC(C)C)n1 | 0.2% | -4% | -8% | 3
CCOC(=O)c1c(NC(C)=O)sc2c(OC)cccc12 | -0.6% | -2% | -7% | 6
COc1ccc(C)cc1-n1nnnc1SCc1cc(=O)n2cc(C)ccc2n1 | 2.4% | 15% | 16% | 9
COc1c2ccoc2c(OC[C@@H](O)C(C)(C)OC)c2oc(=O)ccc12 | ? | -19% | ? | 13
COc1cccc(C(=O)C2CCCN(Cc3ccc(OC)c(Cn4cncn4)c3)C2)c1 (stereo not drawn) | 4.4% | 2% | -10% | -12
CCOc1ccc(-c2cn[nH]c2N)cc1 | -1.8% | 16% | 0% | 0
COc1ccc(NC(=O)CN2CCN(S(=O)(=O)N3CCCCCC3)CC2)cc1 | -0.1% | 0% | 4% | ·
Cc1cc2ccccn2c1C(=O)c1ccc(NN)c([N+](=O)[O-])c1 | -1.0% | 14% | 16% | -6
Cn1ccc(C(=O)Nc2cccnc2Cl)n1 | -0.7% | -24% | 5% | ·
Cc1noc(C)c1S(=O)(=O)N(Cc1ccccc1)C(C)C | 1.8% | -1% | -9% | -3
[O-][N+](=Cc1ccccc1)c1ccc(Cl)cc1 | -0.3% | · | 2% | ·
CCc1nc(SCC(=O)c2cccs2)c2oc3ccccc3c2n1 | ? | -26% | ? | -26
COCCNc1nnc(Cc2ccccc2)c(=O)[nH]1 | -1.2% | 0% | -8% | ·
CC(C)CCOc1ccc(C(CC(N)=O)C(=O)O)cc1 (stereo not drawn) | 8.1% | 0% | -9% | 8
CCOCCc1c(O)nc(SCC)[nH]c1=O | 1.1% | 0% | -13% | -2
CCc1cccc2c(C(=O)COC(=O)[C@@H]3CC(O)CN3S(=O)(=O)c3ccccc3[N+](=O)[O-])c[nH]c12 (stereo partly drawn) | -3.2% | · | 2% | ·
CCOc1ccc(CNC(=O)C2CCN(c3nn4c(=O)cc(C)nc4s3)CC2)cc1 | -2.0% | -3%&-1% | -14% | ·
C/C(=N/NC(=O)CNC(=O)C1COc2ccccc2O1)c1ccc([N+](=O)[O-])cc1 (stereo not drawn) | 2.1% | 7% | -9% | ·
CC(C)C(CCNC(=O)CC(Cc1ccccc1)c1ccco1)c1ccco1 (stereo not drawn) | -5.9% | 1% | 24% | -8
COc1ccc(NC(=O)CNC(=O)N2CC(=O)Nc3ccccc32)cc1OC | 0.4% | -3% | -15% | ·

3 entries from above, arranged by their value in miR-21 reporter, rising:
canonical_smiles,Rango complex inh,miR-21 reporter,Rango dissoc inh,GLA inh pH 4.5
Cn1ccc(C(=O)Nc2cccnc2Cl)n1,-0.7%,-24%,5%,·
COc1c2ccoc2c(OC[C@@H](O)C(C)(C)OC)c2oc(=O)ccc12,?,-19%,?,13
C/C(=N/NC(=O)CNC(=O)C1COc2ccccc2O1)c1ccc([N+](=O)[O-])cc1 (stereo not drawn),2.1%,7%,-9%,·

Next section:
Molecule | Rango complex inh | miR-21 reporter | Rango dissoc inh | GLA inh pH 4.5
O=C(CCN1CCN(c2ccccc2)CC1)NNC(=S)Nc1ccccc1Cl | ? | 1% | -9% | 1
COc1ccc(Cc2nnc(NC(=O)Nc3ccccc3F)s2)cc1 | 1.1% | -13% | -13% | ·
CC1(NC(=S)N(CCO)CCO)CCS(=O)(=O)C1 (stereo not drawn) | 0.3% | 0% | -1% | 7
COc1ccc(C=NCC2OCCc3ccccc32)cc1OC (stereo not drawn) | 1.1% | -1% | 2% | 4
COc1cccc(NC(=O)N2CCCC2C(=O)NC2CCCC2)c1 (stereo not drawn) | -0.1% | 2% | 16% | ·
Cc1ccc(Cl)cc1N(CC(=O)NCc1ccc2c(c1)OCO2)S(C)(=O)=O | -2.1% | -2% | -14% | -24
CCOc1ccc2[nH]c3c(NCCc4ccc(OC)c(OC)c4)ncnc3c2c1 | 1.0% | 8% | -7% | -13
CCc1nn(CC(=O)N2CCN(c3cc(C)ccc3C)CC2)c(=O)c2cc3occc3n12 | -3.4% | -1%&-1% | -8% | ·

From PubChem

Not all compounds are listed; the hit share may differ from the screen's.
